Bioassay records from PubChem.
StopGo reporter – High Throughput Screening for Foot and Mouth Disease Virus Antivirals; human cells with a luciferase reporter of 2A StopGo recoding; control for the full effect not named in the record; Potency, µM (series often up to 57.9 µM), without a hit: at the highest dose signal change, negative = less light; 410,000 tested, 1.2% active; AID 1159524, 2015; active = well fitted falling curve with a large enough effect; inconclusive = small, poorly fitted or top-dose-only effect; inactive = no such curve, though single readings can be large or run the other way; tested in HEK293T cells; note: % is set by controls: 0 for no effect and ±100 for the full control effect; nearly all actives have a fitted effect of over 45% in size; luciferase light after 4 h
Cruzain noTriton – qHTS Assay for Promiscuous and Specific Inhibitors of Cruzain (without detergent) | 200,000 tested, 2.3% active | purified cruzain, Z-FR-AMC fluorescence, no detergent | Potency, µM, inactives show max response, negative = inhibition, hits mostly inhibitors | AID 1476, 2009;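 note: plate controls were enzyme without inhibitor for no effect and buffer without enzyme for full effect; nearly all actives have a fitted effect of over 40% in size; top concentration of the series not given in the record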
Target sequence (P25779 123-467 limits assumed): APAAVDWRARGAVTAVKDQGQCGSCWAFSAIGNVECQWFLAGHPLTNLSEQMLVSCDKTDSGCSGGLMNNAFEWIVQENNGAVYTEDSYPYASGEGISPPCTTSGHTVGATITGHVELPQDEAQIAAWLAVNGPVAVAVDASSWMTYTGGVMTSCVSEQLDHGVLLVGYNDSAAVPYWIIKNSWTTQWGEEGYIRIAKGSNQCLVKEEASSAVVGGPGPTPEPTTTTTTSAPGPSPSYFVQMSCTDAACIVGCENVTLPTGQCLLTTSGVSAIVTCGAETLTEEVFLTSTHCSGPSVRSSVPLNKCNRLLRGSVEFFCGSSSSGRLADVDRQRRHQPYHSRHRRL
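Purified cruzain at 1.5 nM, pre-incubated 15 min with compound at room temperature in 100 mM sodium acetate pH 5.5, 5 mM DTT, 0.00005% Triton X-100. Reaction started with 2 uM Z-FR-AMC; AMC fluorescence increase over 60 s gives rate.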
RE007 growth inh – qHTS Assay for Inhibitors of the HIV-1 protein Vpr. S. pombe RE007 Vpr strain, BacTiter-Glo ATP luminescence, 24 h; control for the full effect not named in the record. Potency, µM (titrated, usually from 92.2 µM), for inactives: top-dose activity change, negative = less growth. 360,000 tested, 0.21% active. AID 651644, 2012; active = well fitted falling curve with a large enough effect; inconclusive = small, poorly fitted or top-dose-only effect; inactive = no such curve, though single readings can be large or run the other way;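 note: % is set by controls: 0 for no effect and ±100 for the full control effect; nearly all actives have a fitted effect of over 50% in size; the assay follows cell death caused by Vpr and the record does not say whether a fall means rescue or toxicity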
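Fission yeast RE007 carrying one integrated HIV-1 vpr copy, seeded at OD 0.01 in PMG+AL medium with 23 nL pinned compound. Grown 24 h at 30 degrees; viability read by BacTiter-Glo luminescence after 5 min.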
LASV entry inh – qHTS for Inhibitors of binding or entry into cells for Lassa Virus. Lassa virus pseudotype entry inhibition, cell reporter; control for the full effect not named in the record. Potency, µM (series often up to 37.9 µM), inactives show top-dose activity change, negative = inhibition, actives largely listed as inhibitors. 300,000 tested, 1.2% active. AID 540256, 2011; active means well fitted inhibition curve with a large enough effect; inconclusive means small, poorly fitted or top-dose-only effect, or effect the other way; inactive means flat fitted curve, though single readings scatter; tested in HEK293 cells; note: % is set by controls: 0 for no effect and ±100 for the full control effect; nearly all actives have a fitted effect of over 50% in size; luciferase read-out
NS1 inh – qHTS Assay for Inhibitors of Influenza NS1 Protein Function; Potency, µM (series often up to 46.1 µM), without a hit: at the top dose activity, positive = more growth; 270,000 tested, 0.4% active; S. cerevisiae slowed by influenza A NS1, growth recovery by OD600; AID 2326, 2010; active means well fitted rising curve with a large enough effect; inconclusive means small, poorly fitted or top-dose-only effect; inactive means no such curve, though single readings can be large or run the other way; note: nearly all actives have a fitted effect of over 50% in size
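A cell-based growth assay was used: compounds that relieve NS1-induced slow growth of budding yeast raise OD600. Assay medium was yeast nitrogen base with ammonium sulphate and -URA supplement, pH 6.0, with 2% galactose.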
SARS PLP yeast – qHTS of Yeast-based Assay for SARS-CoV PLP. 330,000 tested, 0.19% active. Potency, µM (series often up to 32.9 µM), inactives show top-dose activity, positive = growth rescue. S. cerevisiae expressing SARS-CoV PLpro, growth rescue; control for the full effect not named in the record. AID 485353, 2010; active means well fitted rising curve with a large enough effect; inconclusive means small, poorly fitted or top-dose-only effect; inactive means no such curve, though single readings can be large or run the other way; note: 0% is about no effect; nearly all actives have a fitted effect of over 55% in size; growth read by luminescence after 48 h
Cruzain Triton – qHTS Assay for Promiscuous and Specific Inhibitors of Cruzain (with detergent). 200,000 tested, 0.43% active. Potency, µM, for the others: max response, negative = inhibition, actives largely listed as inhibitors. purified cruzain, Z-FR-AMC fluorescence, 0.01% Triton. AID 1478, 2009. Cruzipain (Trypanosoma cruzi), P25779;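 note: plate controls were neutral wells for no effect and buffer without enzyme for full effect; nearly all actives have a fitted effect of over 40% in size; top concentration of the series not given in the record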
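Steps: dispense cruzain (1.5 nM final) in acetate buffer pH 5.5 with DTT and 0.01% Triton X-100; pin-transfer compounds; incubate 15 min RT; add Z-FR-AMC (2 uM final); read fluorescence every 30 s, using the 60 s intensity change.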
Marburg entry inh – qHTS for inhibitors of binding or entry into cells for Marburg Virus | Marburg virus pseudotyped entry inhibition, cell reporter; control for the full effect not named in the record; about a third of the inactives were read at about 46 µM | Potency, µM (top dose mostly 37.8 µM), for the others: at the highest dose activity change, negative = inhibition, hits mostly inhibitors | 300,000 tested, 1.8% active | AID 540276, 2011; active = well fitted inhibition curve with a large enough effect; inconclusive = small, poorly fitted or top-dose-only effect, or effect the other way; inactive = flat fitted curve, though single readings scatter; tested in HEK293 cells; about a fifth of its hits are not listed in these tables; note: % is set by controls: 0 for no effect and ±100 for the full control effect; luciferase read-out
* hit, by the source's call; ? = inconclusive; nt = not tested or not shown; & = joins results of further samples; [ ] = remark or other dose. Unless noted, calls come from the whole dose curve; as a rule, active = well fitted curve in the direction sought with a large enough effect; inconclusive = small, poorly fitted or top-dose-only effect, or another doubt; inactive = no such curve, though single readings can be large; an effect the other way counts as inactive or inconclusive. Potency is the fitted concentration of half-maximal effect.

cpd	mol	StopGo reporter	Cruzain noTriton	RE007 growth inh	LASV entry inh	NS1 inh	SARS PLP yeast	Cruzain Triton	Marburg entry inh
1	S=C(c1ccc(-c2ccccc2Cl)o1)N1CCCCC1	22%	6%	-8%	?	-13%	-5%	-10%	-2%
2	CCc1cc(=O)oc2c3c(cc(OCC(=O)NCc4ccncc4)c12)OC(C)(C)CC3	-12%	nt	-19%	nt	-32%	-4%	nt	nt
3	COC(=O)c1ccccc1NC(=O)N1CCCC1	-17%	-4%	-7%	?	-116%	-37%	3.4%	8%
4	CC1CC2(CCCCC2)Nc2c1ccc1ccccc21 (centres undefined)	-18%	8%	-23%	-8%	11%	-4%	-6.1%	6%
5	Nc1nonc1C(=Nc1ccc(Br)cc1)NO	19%	5%	-3%	22%	-3%	22%	5.1%	13%
6	O=C(NNC(=S)Nc1ccc(Cl)cc1)c1ccccc1	68%[activator]	nt	24%	nt	-1%	1%	nt	nt
7	COc1ccc(CNC(=O)c2ccc(-c3nc(CSc4ccc(C)cc4)c(C)o3)cc2)cc1OC	?	?	nt	9%[46.1 µM]	nt	nt	-3.9%	nt
8	CCOC(=O)C(Cc1ccccc1)NC(=O)CCc1c(C)nc2ncnn2c1C (centres undefined)	-7%	-8%	-3%	-6%	0%	3%	2.0%	-3%
9	COc1ccc2cc(N3CCCC3=O)ccc2c1	39%[activator]	nt	33%	3%	nt	nt	nt	-3%
10	CCCc1cnc(N2CCN(S(=O)(=O)c3cccs3)CC2)nc1	1%	nt	-12%	25%[46.1 µM]	0%	-2%	nt	-1%[46.1 µM]
11	CCC(C(=O)Nc1cc(C)ccc1OC)n1nnc(C(=O)OC)c1C(=O)OC (centres undefined)	-8%	11%	nt	26%[46.1 µM]	nt	nt	-1.8%	3%[46.1 µM]
12	CCOC(=O)c1cnc2nc(N3CCOCC3)nn2c1N	12%	nt	1%	1%	nt	2%	nt	5%[46.1 µM]
13	COc1ccc(NC(=O)C/C(C)=N/NC(=O)C2CCCCC2)c([N+](=O)[O-])c1	-3%	nt	-8%	nt	6%	-3%	nt	6%[46.1 µM]
14	Cc1ccc(S(=O)(=O)c2nc(-c3ccco3)oc2SC(C)C)cc1	14%&3%	20%	0%	-1%&-5%[46.1 µM]	-30%	-21%	-14%	?
15	CCOC(=O)c1cc2nc(-c3ccccc3)cc(C)n2n1	-14%	nt	21%	10%	-6%	3%	nt	-2%

In a second layout: seven of the compounds above.
(2) CCc1cc(=O)oc2c3c(cc(OCC(=O)NCc4ccncc4)c12)OC(C)(C)CC3
(3) COC(=O)c1ccccc1NC(=O)N1CCCC1
(4) CC1CC2(CCCCC2)Nc2c1ccc1ccccc21 (centres undefined)
(5) Nc1nonc1C(=Nc1ccc(Br)cc1)NO
(6) O=C(NNC(=S)Nc1ccc(Cl)cc1)c1ccccc1
(7) COc1ccc(CNC(=O)c2ccc(-c3nc(CSc4ccc(C)cc4)c(C)o3)cc2)cc1OC
(8) CCOC(=O)C(Cc1ccccc1)NC(=O)CCc1c(C)nc2ncnn2c1C (centres undefined)

assay / entry,2,3,4,5,6,7,8
StopGo reporter,-12%,-17%,-18%,19%,68%[activator],?,-7%
Cruzain noTriton,nt,-4%,8%,5%,nt,?,-8%
RE007 growth inh,-19%,-7%,-23%,-3%,24%,nt,-3%
LASV entry inh,nt,?,-8%,22%,nt,9%[46.1 µM],-6%
NS1 inh,-32%,-116%,11%,-3%,-1%,nt,0%
SARS PLP yeast,-4%,-37%,-4%,22%,1%,nt,3%
Cruzain Triton,nt,3.4%,-6.1%,5.1%,nt,-3.9%,2.0%
Marburg entry inh,nt,8%,6%,13%,nt,nt,-3%

Next section
cpd	mol	StopGo reporter	Cruzain noTriton	RE007 growth inh	LASV entry inh	NS1 inh	SARS PLP yeast	Cruzain Triton	Marburg entry inh
16	COc1ccccc1-c1noc(CCCC(=O)N2CCOCC2)n1	-7%	nt	31%	nt	0%	-5%	nt	nt
17	Cc1ccc2nc(N3CCN(Cc4nnnn4C4CCCC4)CC3)c(C#N)cc2c1	-26%	?	-13%	?	3%	18%	-7.0%	?
18	CCN(CC(=O)NCc1cccnc1)S(=O)(=O)c1ccc(OC)cc1	3%	nt	-5%	22%[46.1 µM]	-4%	1%	nt	5%[46.1 µM]
19	CCc1ccc(N2CC(C(=O)OCC(=O)c3c(N)n(CC(C)C)c(=O)n(C)c3=O)CC2=O)cc1 (centres undefined)	?	nt	5%	-10%	nt	1%	nt	-19%
20	O=C(NCc1ccccc1)c1ccc2c(c1)CCN2S(=O)(=O)c1ccccc1	6%	6%	nt	?	nt	nt	-4.1%	-1%[46.1 µM]
21	CCOC(=O)C(=CNc1ccc2c(c1)nnn2-c1ccc(Cl)cc1)C(=O)OCC	-8%	-9%	-4%	9%	9%	18%	-4.9%	5%
22	CCOC(=O)c1cccc(NC(=O)C2=C(C)C(=O)OC23CCCCC3)c1	-3%	-3%	nt	6%[46.1 µM]	nt	nt	-2.1%	12%[46.1 µM]
23	COC(=S)N/C(=N\S(=O)(=O)c1ccc(Cl)cc1)c1ccccc1	7%	nt	-3%	nt	0%	6%	nt	nt
24	Cc1cc(C(=O)Nc2ccc3nc(C)sc3c2)c2ccccc2n1	-22%	nt	-1%	nt	10%	-2%	nt	nt
25	CN(C)c1ccc(N=Cc2nc(-c3ccccc3)oc2O)cc1	14%	-20%	?	-2%	-6%	3%	-0.4%	25%&25%
26	Cc1cc(C)c2oc(-c3cccc(NC(=O)c4cc5ccccc5o4)c3)nc2c1	10%	11%	nt	9%[46.1 µM]	nt	nt	-0.4%	nt
27	Cc1[nH]c(C)c(S(=O)(=O)Nc2ccccc2Cl)c1C(=O)N1CCCC1	17%	nt	3%	nt	2%	2%	nt	nt
28	Cc1ccc(NC(=O)c2cc3c(=O)[nH]c4ccccc4c3n2C)cc1F	-7%	0%	nt	?	nt	nt	-0.7%	2%[46.1 µM]
29	Cc1cccc(NC(=O)CSc2ncnc3nc[nH]c23)c1C	nt	-2%	10%	-3%	7%	-10%	4.0%	7%
30	Cc1cc(C(=O)COC(=O)CCc2nc3ccccc3c(=O)[nH]2)c(C)n1CC1CCCO1 (centres undefined)	-1%	nt	-8%	20%	-3%	-1%	nt	5%[46.1 µM]
31	CCc1ccc(CNC(=O)c2ccc3c(c2)nc2n3CCCCC2)cc1	60%[activator]	-7%	nt	?	nt	nt	-1.3%	nt
32	CCN1C(=O)[C@H]2[C@@H](c3ccc(Cl)cc3)N3C(=O)CN(CC4CC4)C(=O)[C@@]3(Cc3ccccc3)[C@H]2C1=O	-22%	nt	0%	nt	-11%	-7%	nt	nt
33	Cn1ccnc1C(=O)c1cccc(Br)c1	40%[activator]	nt	17%	?	9%	-1%	nt	13%[46.1 µM]
34	O=C(c1ccc(Cl)c(S(=O)(=O)N2CCCC2)c1)N1CCOCC1	-21%	nt	30%	0%	5%	?	nt	15%
35	CC(NC(=O)C12CC3CC(CC(C3)C1)C2)c1ccc(F)cc1 (centres undefined)	0%	nt	58%	-16%	2%	0%	nt	3%[46.1 µM]
36	CCN(c1cc(C)cc(C)c1)S(=O)(=O)c1nnc(NC(=O)c2ccccc2C)s1	-19%	?	nt	?	nt	nt	-5.7%	nt
37	COC(=O)[C@@H](C)NC(=O)c1ccc2oc(CCc3ccccc3)nc2c1	47%[activator]	nt	8%	nt	-16%	-1%	nt	nt
38	CCC1C(c2ccccc2)N(C)C(c2ccccc2)CC1(O)c1ccccc1 (centres undefined)	?	nt	-15%	?	1%	7%	nt	?
39	CC(C)c1nnc(NC(=O)CC23CC4CC(CC(C4)C2)C3)s1	-14%	nt	10%	nt	11%	-6%	nt	nt
40	Cc1ccc(-c2n[nH]c(=S)c3ccccc23)cc1	-19%	nt	-27%	2%	nt	2%	nt	-12%
41	CCOc1ccc(S(=O)(=O)Nc2ccc3oc(C)c(C(=O)OC(C)C)c3c2)cc1	64%[activator]	-3%	nt	-21%[46.1 µM]	nt	nt	-11%	nt
42	NNC(=O)CN1C(=O)Nc2ccc(Br)cc2C1c1ccccc1 (centres undefined)	nt	12%	3%	2%	?	?	-10.0%	-2%
43	COC(=O)c1ccc(N2CCOCC2)c(NC(=O)c2cc3ccccc3o2)c1	-5%	nt	-2%	0%	nt	nt	nt	-1%[46.1 µM]
44	CCCc1nc(NCCO)c(C#N)c2c1CCCC2	-27%	nt	13%	0%	-1%	-3%	nt	-22%[46.1 µM]
45	O=C(CSc1ccc(-c2ccc(Cl)cc2)nn1)NC1CCCC1	0%	nt	2%	-7%	3%	-5%	nt	1%
46	O=C1C2CC=CCC2C(=O)N1c1cccc(OS(=O)(=O)c2ccc3ccccc3c2)c1 (centres undefined)	0%	-6%	3%	?	-2%	1%	1.2%	20%
47	OCCn1nc(-c2ccccc2)cc1-c1ccccc1	24%	nt	-25%	nt	-28%	-3%	nt	nt
48	COCCn1c(=S)[nH]c2cc(C(=O)N3CCc4ccccc43)ccc2c1=O	7.9µM*	?	-8%	?	-27%	4%	-5.1%	?
49	COc1ccc(-c2[nH]ncc2-c2ccc(Cl)cc2)c(O)c1	?	0%	?	-28%	-116%	nt	-9.8%	5%
50	c1ccc(N2CCN(CCc3nnc4n3CCCCC4)CC2)cc1	nt	4%	3%	3%	-12%	?	2.0%	-22%
51	O=C(N=C1c2ccccc2CN1c1cccc(Cl)c1)c1cccnc1	66%[activator]	5%	5%	12%	0%	-23%	1.6%	?
